Screening results: PubChem BioAssay, National Center for Advancing Translational Sciences (NCATS)
D2 potentiator – potentiates the human D2 dopamine receptor allosterically; AID 624464; 360,000 tested, 0.23% active; potentiation, % (no concentration beside the values); DiscoveRx D2 beta-arrestin cells, luminescence, 90 min; 100% = 57 uM dopamine signal; P14416; active = potentiation of 50% or more; inconclusive = 30% to 50%; inactive = 30% or less;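 note: compound concentration not given in the record; tested on top of an EC20 dose of dopamine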
Target sequence (P14416 whole entry, looked up): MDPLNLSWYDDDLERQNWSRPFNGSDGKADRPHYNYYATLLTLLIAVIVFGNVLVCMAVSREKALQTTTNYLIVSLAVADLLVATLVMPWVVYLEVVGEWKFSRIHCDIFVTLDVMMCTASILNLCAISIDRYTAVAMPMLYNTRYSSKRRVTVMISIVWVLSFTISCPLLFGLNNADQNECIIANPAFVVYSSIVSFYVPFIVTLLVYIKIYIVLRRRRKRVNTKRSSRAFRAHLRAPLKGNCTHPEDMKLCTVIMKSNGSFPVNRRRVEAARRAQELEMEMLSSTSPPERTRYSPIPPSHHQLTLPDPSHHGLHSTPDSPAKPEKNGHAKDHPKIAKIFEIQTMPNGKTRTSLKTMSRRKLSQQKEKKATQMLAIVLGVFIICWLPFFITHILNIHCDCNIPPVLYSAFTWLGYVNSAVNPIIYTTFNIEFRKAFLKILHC
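D2 cells co-treated with compound plus 50 nM dopamine (EC20) for 90 min at 37 deg C to detect potentiation. Beta-arrestin recruitment was read as enzyme-fragment luminescence after 1 h at ambient temperature. Full response was set by 57 uM dopamine.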
TRPML1 ag – agonists of human TRPML1 channel; Q9GZU1; activation, % (test concentration not listed); TRPML1-expressing cells, Ca2+ dye fluorescence, FDSS; host cell line not named in the record; reference of the full effect not given here; 410,000 tested, 0.12% active; in the data active = activation above about 50%; inconclusive = about 30% to 50%; inactive = below about 30%; note: 0% is about no effect; the text of the record puts the active cut at 80%
Target sequence (Q9GZU1 whole entry, looked up): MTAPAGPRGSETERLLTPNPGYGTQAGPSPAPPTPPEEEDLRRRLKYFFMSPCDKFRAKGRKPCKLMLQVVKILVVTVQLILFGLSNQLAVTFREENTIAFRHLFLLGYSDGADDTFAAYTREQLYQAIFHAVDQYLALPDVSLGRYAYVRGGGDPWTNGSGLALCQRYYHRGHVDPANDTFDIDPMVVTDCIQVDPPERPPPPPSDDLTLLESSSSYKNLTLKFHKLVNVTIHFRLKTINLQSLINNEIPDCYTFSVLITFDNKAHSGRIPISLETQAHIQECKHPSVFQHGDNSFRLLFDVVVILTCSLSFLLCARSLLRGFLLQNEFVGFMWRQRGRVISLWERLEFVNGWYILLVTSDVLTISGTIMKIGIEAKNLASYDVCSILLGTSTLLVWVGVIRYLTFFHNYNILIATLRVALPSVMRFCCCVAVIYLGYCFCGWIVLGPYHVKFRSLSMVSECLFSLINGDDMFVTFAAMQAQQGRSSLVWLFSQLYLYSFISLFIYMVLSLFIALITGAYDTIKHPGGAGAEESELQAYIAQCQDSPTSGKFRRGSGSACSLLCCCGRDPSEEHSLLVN
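Tetracycline-induced TRPML1-DL cells are seeded and incubated overnight before loading with a no-wash Ca2+ dye and quencher. Agonist activity is taken from the 110 s fluorescence read following compound pin-transfer on an FDSS, before EC80 54-4 challenge.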
CtBP-E1A inh – inhibitors of CtBP/E1A interaction; 340,000 tested, 0.49% active; activity change, % (concentration not given with the values); AID 651724; AlphaScreen GST-E1A/His-CtBP binding, 1536-well; active compounds read low; control for the full effect not named in the record; in the data active means activity change below about -65%; inconclusive means about -30% to -65%; inactive means above about -30%; note: % is set by controls: 0 for no effect and ±100 for the full control effect
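Steps: dispense buffer (Tris pH 8.0, NaCl 300 mM, TCEP 1 mM, BSA, Tween 20); add 5X protein mix (GST-E1A, His-CtBP, 125 nM each); pin 23 nL compound; 2 h at 37 °C, dark; add 5X beads (50 ug/mL); 1 h; read.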
D2 agonist – human D2 receptor agonism in beta-arrestin assay | 360,000 tested, 0.084% active | AID 624465 | P14416 | DiscoveRx PathHunter D2 beta-arrestin, luminescence, 90 min; 100% = 57 uM dopamine signal | activation, % (concentration not given with the values); in the data active = activation above about 40%; inconclusive = about 15% to 40%; inactive = below about 15%; note: compound concentration not given in the record; the text of the record calls up to 30% inactive
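DiscoveRx PathHunter D2 beta-arrestin cells (2,100/well) attached overnight, then compound-stimulated 90 min at 37 C in HBSS/10 mM HEPES/0.1% Tween-20 buffer; beta-galactosidase complementation read by luminescence after 1 h at ambient temperature. Dopamine 57 uM final (EC100) as control.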
PINK1 modulator – PINK1 expression modulation | Potency, µM (titrated, usually from 76.6 µM), for inactives: at the top dose activation (PINK1 increase), hits mostly activators | AID 624263 | 410,000 tested, 0.2% active | PINK1 immunofluorescence, high-content cytometry, 24 h; active = well fitted activation curve with a large enough effect; inconclusive = small, poorly fitted or top-dose-only effect; inactive = flat fitted curve, though single readings scatter; cell line not stated here;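 note: potency is the fitted concentration of half-maximal effect; % of control where 0% means no effect; nearly all actives have a fitted effect of over 65% in size; a mitochondrial uncoupler was the plate control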
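Compound titrations (5 concentrations, 24 h) on a stable cell line; DMSO and CCCP controls. Endpoint: fixed-cell PINK1 immunofluorescence with mitochondrial, cell and nuclear markers, scanned by microplate cytometer.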
Six1-Eya2 blk – Six1/Eya2 interaction inhibition; Q15475+O00167; AlphaScreen GST-Six1/His-Eya2 binding, biochemical; active compounds read low; control for the full effect not named in the record; activity change, % (test concentration not listed); 360,000 tested, 0.56% active; AID 651725; in the data active = activity change below about -65%; inconclusive = about -30% to -65%; inactive = above about -30%; note: % is set by controls: 0 for no effect and ±100 for the full control effect
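Six1/Eya2 binding was read as AlphaScreen signal after compounds were pinned into GST-Six1 plus His-tagged Eya2 (5X stock 250/500 nM) in pH 8.0 Tris/NaCl/TCEP buffer, beads added, then incubated 1 h, 37 C, dark.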
Active calls of the source: *; [ ] = remark or other dose.

How did CCSC1=N/C(=C\c2ccccc2)C(=O)N1c1ccc(OC)cc1 do in these assays?
D2 potentiator: -2.4; TRPML1 ag: 0.0; CtBP-E1A inh: 12.9; D2 agonist: -1.1; PINK1 modulator: 3.6%; Six1-Eya2 blk: 5.2

Results for CCN(C[C@H]1N[C@@](Cc2ccccc2)(C(=O)OC)[C@H]2C(=O)N(Cc3ccccc3)C(=O)[C@@H]12)C(=O)NC(C)C ?
TRPML1 ag: 0.1; CtBP-E1A inh: 9.0; D2 agonist: -2.1; PINK1 modulator: 0.2%; Six1-Eya2 blk: -0.6

What do the screens show for `COc1cccc(OC)c1C(=O)Nc1ccc(CN2CCCCC2)cc1`?
D2 potentiator: -28.9; TRPML1 ag: 0.2; CtBP-E1A inh: 4.0; D2 agonist: -0.8; PINK1 modulator: 0.7%; Six1-Eya2 blk: 4.7

Results for COc1ccc(CC(=O)NCc2ccc3c(c2)cc(C)n3C)cc1 ?
D2 potentiator: 4.1; TRPML1 ag: 0.3; CtBP-E1A inh: -1.4; D2 agonist: 3.3; PINK1 modulator: -1.1%; Six1-Eya2 blk: -9.1

How did COc1cc(C(=O)NCCCOC(C)C)ccc1OC1CCN(C(C)=O)CC1 do in these assays?
D2 potentiator: -2.0; TRPML1 ag: 0.8; CtBP-E1A inh: 7.6; D2 agonist: -2.8; PINK1 modulator: 0.3%; Six1-Eya2 blk: 5.0

How did Cc1ccc(/C=C2\NC(=S)NC2=O)cc1[N+](=O)[O-] do in these assays?
D2 potentiator: -2.3; TRPML1 ag: 1.1; CtBP-E1A inh: 1.0; D2 agonist: 4.0; PINK1 modulator: -1.7%; Six1-Eya2 blk: 12.1

What do the screens show for `CCOc1ccc(Cn2c(=O)sc3ccccc32)cc1OC`?
D2 potentiator: -9.3; TRPML1 ag: 1.0; D2 agonist: -2.7; PINK1 modulator: 3.5%; Six1-Eya2 blk: 6.4

How did CCc1cc2cccc(C)c2nc1SCC(=O)Nc1cc(C)on1 do in these assays?
D2 potentiator: -7.2; TRPML1 ag: 4.0; CtBP-E1A inh: 0.3; D2 agonist: 1.8; PINK1 modulator: 12.4%; Six1-Eya2 blk: 2.9

How did COc1ccc(OC)c(NC(=O)CCc2nnc3ccc(N4CCC(C)CC4)nn23)c1 do in these assays?
D2 potentiator: 0.2; TRPML1 ag: -1.0; CtBP-E1A inh: -7.6; D2 agonist: -7.6; PINK1 modulator: -1.0%; Six1-Eya2 blk: -1.7

What do the screens show for `Cc1ccc(S(=O)(=O)CCC(=O)N(C)C2CCCCC2)cc1`?
D2 potentiator: -28.5; TRPML1 ag: 1.1; CtBP-E1A inh: 15.1; D2 agonist: -5.7; PINK1 modulator: 0.4%; Six1-Eya2 blk: 4.8

What do the screens show for `COc1ccc(C(=O)Nc2ccc(Cl)cc2C(=O)N2CCOCC2)cc1`?
D2 potentiator: -2.7; TRPML1 ag: -0.3; CtBP-E1A inh: 11.5; D2 agonist: -3.9; PINK1 modulator: 3.6%; Six1-Eya2 blk: 4.6

What do the screens show for `Cn1c(CC(=O)Nc2ccc(Cl)c(Cl)c2)nnc1SCC(=O)N1CCN(c2ccccc2)CC1`?
D2 potentiator: 1.7; TRPML1 ag: 0.3; CtBP-E1A inh: -26.6; D2 agonist: 2.9; PINK1 modulator: -1.9%[38.3 µM]; Six1-Eya2 blk: -18.4

What do the screens show for `CC1CC1C(=O)OCC(=O)NNC(=O)c1ccc([N+](=O)[O-])cc1` (configuration not stated)?
D2 potentiator: 5.9; TRPML1 ag: 1.2; CtBP-E1A inh: 1.0; D2 agonist: 4.2; PINK1 modulator: 0.2%; Six1-Eya2 blk: 5.9

What do the screens show for `COc1ccc(OC)c(C(C)NC(=O)c2ccco2)c1` (configuration not stated)?
D2 potentiator: 8.1; TRPML1 ag: -0.8; CtBP-E1A inh: 6.8; D2 agonist: -4.7; Six1-Eya2 blk: -1.5

What do the screens show for `COc1ccc(C(=O)CSc2nc3ccccc3n2CC(=O)c2ccccc2)cc1`?
D2 potentiator: -5.0; TRPML1 ag: 1.2; CtBP-E1A inh: -7.3; D2 agonist: -0.9; PINK1 modulator: 2.6%[38.3 µM]; Six1-Eya2 blk: -6.5

Results for COCCN(C(=O)C(C)C)c1nnc(-c2cccc(C)c2)s1 ?
D2 potentiator: -8.1; TRPML1 ag: -0.3; CtBP-E1A inh: 7.4; D2 agonist: -2.6; PINK1 modulator: 0.5%; Six1-Eya2 blk: -0.5

How did COc1cccc2cc(C(=O)NCc3ccc(C)cc3)c(=O)oc12 do in these assays?
D2 potentiator: -0.4; TRPML1 ag: -1.2; CtBP-E1A inh: 4.2; D2 agonist: -0.3; PINK1 modulator: 2.9%; Six1-Eya2 blk: -6.7

What do the screens show for `CCCN1CCN(C(=O)CCNC(=O)Cn2cnc3ccccc3c2=O)CC1`?
D2 potentiator: -2.6; TRPML1 ag: 0.8; CtBP-E1A inh: -0.7; D2 agonist: -5.5; PINK1 modulator: 2.0%; Six1-Eya2 blk: 3.6

How did C=CCOc1ccc2nnc(C)n2n1 do in these assays?
D2 potentiator: -8.3; TRPML1 ag: 0.7; D2 agonist: 1.9; PINK1 modulator: 2.0%; Six1-Eya2 blk: 15.6

Results for O=C(Nc1ccc2oc(-c3cccnc3)nc2c1)c1ccc(Br)o1 ?
D2 potentiator: -12.9; TRPML1 ag: -0.4; CtBP-E1A inh: -9.9; D2 agonist: -1.0; PINK1 modulator: 10.5%; Six1-Eya2 blk: -19.0

What do the screens show for `CC(=O)C1=C(O)CC(C)(C)CC1=NCCc1nc2ccccc2[nH]1`?
D2 potentiator: -0.4; TRPML1 ag: 1.0; CtBP-E1A inh: 0.0; D2 agonist: -6.2; PINK1 modulator: 0.5%; Six1-Eya2 blk: 6.7

Results for COC(=O)c1ccccc1NC(=O)C(C)n1nc(C)c2c(C)n(-c3ccccc3)nc2c1=O (configuration not stated) ?
D2 potentiator: -5.6; TRPML1 ag: 0.1; D2 agonist: -0.9; PINK1 modulator: -0.7%; Six1-Eya2 blk: -17.3

How did Cc1cc(C)nc(NS(=O)(=O)c2ccc(NC(=O)c3cc4c(=O)n5cccc(C)c5nc4n3C)cc2)n1 do in these assays?
D2 potentiator: -9.6; TRPML1 ag: -0.5; CtBP-E1A inh: -3.1; D2 agonist: -3.1; PINK1 modulator: 4.1%; Six1-Eya2 blk: -3.1

What do the screens show for `CC(=O)ON1C(C)(C)Cc2noc(N)c2C1(C)C`?
D2 potentiator: -7.1; TRPML1 ag: -0.7; CtBP-E1A inh: 3.1; D2 agonist: -2.5; PINK1 modulator: 3.1%; Six1-Eya2 blk: 2.9

What do the screens show for `COc1ccccc1CCC(=O)N(C)C1CCCN(Cc2ccccc2F)C1` (configuration not stated)?
D2 potentiator: -3.4; TRPML1 ag: 1.0; CtBP-E1A inh: -10.8; D2 agonist: -6.0; PINK1 modulator: 3.8%; Six1-Eya2 blk: -2.1

What do the screens show for `CS(=O)(=O)N(CC(N)=O)c1cccc(Br)c1`?
D2 potentiator: inconclusive; TRPML1 ag: -0.8; CtBP-E1A inh: -2.1; D2 agonist: 0.9; PINK1 modulator: 0.3%; Six1-Eya2 blk: -3.1

Results for CN(C(=O)COC(=O)c1ccc(Cl)s1)C1(C#N)CCCCC1 ?
D2 potentiator: 2.7; TRPML1 ag: 1.0; CtBP-E1A inh: -15.1; D2 agonist: -0.3; PINK1 modulator: 1.3%; Six1-Eya2 blk: -5.9

Results for COc1ccc(C(CNC(=O)c2cccc(S(=O)(=O)Nc3ccc(Br)cc3)c2)N(C)C)cc1 (configuration not stated) ?
D2 potentiator: -10.8; TRPML1 ag: 0.0; D2 agonist: 3.0; PINK1 modulator: 6.8%; Six1-Eya2 blk: -7.8

How did COc1ccc(CNC(=O)CSc2nnc(C)n2-c2ccc(F)cc2)cc1 do in these assays?
D2 potentiator: -3.5; TRPML1 ag: -0.7; CtBP-E1A inh: 3.3; D2 agonist: 0.4; PINK1 modulator: 3.0%; Six1-Eya2 blk: 11.2

What do the screens show for `COc1ccc(CNS(=O)(=O)c2ccc(Br)s2)cc1`?
D2 potentiator: -4.6; TRPML1 ag: 0.1; CtBP-E1A inh: 3.8; D2 agonist: 0.7; PINK1 modulator: 0.8%; Six1-Eya2 blk: 5.7

How did CC(C)NC(=O)C1(C)CCN1C(=O)Cc1ccc(-c2ccccc2)cc1 (configuration not stated) do in these assays?
D2 potentiator: -2.1; TRPML1 ag: -1.0; CtBP-E1A inh: 3.0; D2 agonist: 3.8; PINK1 modulator: 0.9%; Six1-Eya2 blk: 0.7

How did Cc1c(OCC(=O)N2CCC(C(N)=O)CC2)ccc2c3c(c(=O)oc12)CCC3 do in these assays?
D2 potentiator: -2.6; CtBP-E1A inh: 4.4; D2 agonist: -4.6; PINK1 modulator: 1.0%; Six1-Eya2 blk: 1.8

What do the screens show for `O=C(O)c1cccc(N/N=C/c2sc(N3CCOCC3)nc2-c2ccccc2)c1`?
D2 potentiator: 112.0*; TRPML1 ag: -0.6; CtBP-E1A inh: 8.0; D2 agonist: 13.4; PINK1 modulator: 1.6%; Six1-Eya2 blk: -4.4

What do the screens show for `Oc1ccccc1/C=N/n1cnnc1`?
D2 potentiator: -1.3; TRPML1 ag: 0.6; CtBP-E1A inh: 6.8; D2 agonist: -1.4; PINK1 modulator: 0.1%; Six1-Eya2 blk: -1.3

How did CCCC/C(O)=C1\C(=O)CC(C)(C)CC1=Nc1ccc(N)cc1 do in these assays?
D2 potentiator: -10.4; TRPML1 ag: -0.4; CtBP-E1A inh: 11.9; D2 agonist: -1.5; PINK1 modulator: 2.4%; Six1-Eya2 blk: -0.9

What do the screens show for `Cc1ccc(OCC(=O)N/N=C/c2cn[nH]c2-c2ccc(Cl)c(Cl)c2)cc1`?
D2 potentiator: 16.8; TRPML1 ag: 3.8; CtBP-E1A inh: -11.5; D2 agonist: -2.0; PINK1 modulator: -1.9%; Six1-Eya2 blk: -21.1

Results for COc1ccc(Cl)cc1S(=O)(=O)N1CCN(C(=O)c2n[nH]c(=O)c3ccccc23)CC1 ?
D2 potentiator: -6.1; TRPML1 ag: 0.0; CtBP-E1A inh: 4.1; D2 agonist: -6.3; PINK1 modulator: -3.6%; Six1-Eya2 blk: 6.1

How did CN(C)S(=O)(=O)c1ccc(-c2csc(-c3cccnc3)n2)cc1 do in these assays?
D2 potentiator: -18.0; TRPML1 ag: -0.6; CtBP-E1A inh: -16.2; D2 agonist: -3.4; PINK1 modulator: 6.4%; Six1-Eya2 blk: -22.7

How did Nc1nc(-c2sc3nc4c(cc3c2N)CCCC4)nc(N2CCOCC2)n1 do in these assays?
D2 potentiator: -2.3; TRPML1 ag: 3.1; CtBP-E1A inh: 3.5; D2 agonist: 5.5; PINK1 modulator: inconclusive; Six1-Eya2 blk: 11.1
